Screening data: PubChem BioAssay, ICCB-Longwood Screening Facility, Harvard Medical School
MgrA DNA FP: alters Staphylococcus aureus MgrA binding to DNA; fluorescence polarization; 0.13% of 84,000 active; inhibition, %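 (about 10 µg/mL by stock and volumes)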;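 active means above 50% in either of two replicates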;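 further: 0% = protein plus DNA without compound and 100% = DNA alone without protein; higher means less MgrA bound to DNA so lower polarization; one replicate is shown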
Sa helicase inh: blocks Staphylococcus aureus DNA helicase; inhibition, %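 (tested at about 80 µM)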; AID 485395; purified S. aureus helicase, fluorescence unwinding assay; about half of the hits fall short of the stated cut; 0.05% of 120,000 active;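 active means both duplicates at 50% or more, or one of them with a favoured structure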;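 further: 0% = mean of negative control wells and 100% = mean of positive control wells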
* marks the source's active call; other numbers are inactive results; / = no result given; & = joins results of further samples. The list is partial, so the mix of outcomes need not match the whole.

Each structure is followed by: MgrA DNA FP | Sa helicase inh
> O=C(NC1CCCC1)c1ccc(Nc2nc3ccccc3n3nnnc23)cc1
→ / | -82
> O=C(Nc1ccc(Cl)cc1)OCc1ccc(Cl)nc1
→ 1.3 | /
> CC1CCCCN1c1nnc(NC(=O)NCc2ccccc2)s1 (configuration not stated)
→ / | 1
> CCSc1nnc(NC(=O)C(CC)Sc2ccc(Cl)cc2)s1 (configuration not stated)
→ / | 22
> CSc1nnc(C2CCCN2CC(=O)NC(c2ccccc2)c2ccccc2)n1C (configuration not stated)
→ -6.0 | 9
> CCOc1ccc(C(=O)C(C)OC(=O)c2cccnc2N2CCCC2)cc1 (configuration not stated)
→ / | -9
> CCN(CC)C(=O)Cn1cc(/C=C2/C(=O)N(C)c3ccccc32)c2ccccc21
→ 0.6 | 11
> S=c1sc2ccccc2n1Cc1ccccc1
→ / | 16
> COC(=O)/C(C(C)=N)=C(\O)CSc1nnnn1-c1ccc(Cl)cc1
→ / | -6
> O=C1CC(c2cccs2)CC(O)=C1C=Nc1ccccc1Cl (configuration not stated)
→ -1.9 | /
> Fc1ccc(NC(=S)N2CCN=C2Nc2ccc(F)cc2)cc1
→ / | -12
> CCOc1cc(CO)cc(Cl)c1OCC(=O)Nc1ccccc1OC
→ 1.2 | 19
> COc1ccc2c(c1)CC/C(=C/c1cccc(O)c1)C2=O
→ / | -13
> Cc1nn(C)c(C)c1N1C(=O)c2cccc3c(Br)ccc(c23)C1=O
→ 3.5 | -6
> Cc1cccc(N2C(=O)CSC(C)C2=O)c1 (configuration not stated)
→ 2.5 | /
> CCOc1ccccc1NC(=O)CCS(=O)(=O)c1ccc2c(c1)CCN2C(C)=O
→ / | -16
> CCCCNC(=S)Nc1cccc(OC)c1
→ -0.8 | /
> CC1CC(C)(C)NC(=S)N1CC(=O)Nc1ccc(Cl)cc1 (configuration not stated)
→ / | -36
> CCCSC1=C(C#N)C(c2cccs2)CC(=O)N1 (configuration not stated)
→ 2.4 | -24
> C=CCNc1sc(N)c(C#N)c1C(=O)c1ccc(Br)s1
→ 2.1 | -9
> Cc1ccc(-c2csc(N=C(N)N)n2)c(C)c1
→ -0.1 | /
> O=C(CSc1nnnn1C1CC1)Nc1ccc2c(c1)CCC2
→ / | 8
> Cc1c(C(=O)OC2CCCCC2)sc2ncn(CC(N)=O)c(=O)c12
→ -1.9 | 4
> CCn1cc(C2N3CC4(C)CN2CC(C)(C3)C4O)c2ccccc21 (configuration not stated)
→ 0.4 | 3
> O=C(c1cc2ccccc2oc1=O)N1CCCCC1
→ -1.1 | /
> O=C(O)COCC(=O)Nc1nnc(C(F)(F)F)s1
→ / | -15
> Cc1ccc(NS(=O)(=O)c2c(C)noc2C)cc1
→ -2.5 | 8
> CN(C)c1ccc(C2OCCN2C(=S)Nc2ccccc2F)cc1 (configuration not stated)
→ -0.9 | /
> CSc1ccc(C(=O)NC(=O)Nc2cc(C)on2)s1
→ -0.3 | /
> CCN(CC)C(=O)c1cccnc1Oc1ccc(Cl)cc1
→ / | 13
> O=C(Cn1c(=O)n(Cc2cccs2)c(=O)c2ccc(Cl)cc21)NCC1CCCO1 (configuration not stated)
→ / | -13
> Cc1cc(N2CC(=O)N(CCc3ccccc3)C(=O)C2)nc(-n2nc(C)cc2C)n1
→ / | -10
> COc1ccccc1NC(=O)Nc1nc(CC(=O)N2CCCC2)cs1
→ / | 10
> CCC(Cn1nnn(-c2ccccc2)c1=O)NC(=O)Cc1nn(CC)c(=O)c2ccccc12 (configuration not stated)
→ / | -20
> CC(C)c1nn2c(=O)cc(COc3cccc(NS(C)(=O)=O)c3)nc2s1
→ / | 6
> O=C(C(Sc1ccccc1)c1ccccc1)n1cnc2ccccc21 (configuration not stated)
→ 3.7 | 5
> O=C(OCCN1C(=O)c2cccc3c(N4CCOCC4)ccc(c23)C1=O)c1ccc(S(=O)(=O)N2CCCCC2)cc1
→ -1.3 | /
> O=C(Nc1ccc(-n2nncc2-c2ccccc2)cc1)c1ccco1
→ / | 11
> CC(=O)Nc1scc(-c2ccccc2)c1C(=O)N1CCOCC1
→ / | 3
> Cc1cccc(N2C(=O)SC(C)C2=O)c1 (configuration not stated)
→ -0.2 | -21
> Cc1ccc(CS(=O)Cc2ccc(C(=O)NCC3CCCO3)o2)cc1 (configuration not stated)
→ / | 0
> Cc1ccc(C(=O)C(C)Sc2nnnn2C)cc1 (configuration not stated)
→ / | -6
> N=c1oc2c3c4c(cc2cc1C(=O)Nc1ccccc1)CCCN4CCC3
→ / | -476
> CCOC(=O)c1c(/N=C/C2C(=O)NC(=S)NC2=O)sc2c1CCCCC2
→ 22 | -70
> CSc1ccccc1NC(=O)CN(C)C(=O)c1cnn(-c2ccccc2)n1
→ / | 5
> COc1ccc2oc(-c3ccccc3)c(C(N)=O)c2c1
→ / | -7
> CC(C)CN1C(=O)S/C(=C\c2ccc(F)cc2)C1=O
→ 0.5 | 5
> CC1(C)CC(=O)C2=C(C1)NC1=C(C(=O)CC(C)(C)C1)C2c1ccc([N+](=O)[O-])s1
→ 0.4 | /
> COc1ccc(-n2c(SCc3nc4ccccc4s3)nc3ccccc32)cc1
→ / | -7
> Cc1ccc(S(=O)(=O)NCCN2CCN(Cc3ccc(Br)s3)CC2)cc1
→ / | 21

A second format for some results above.
smiles | MgrA DNA FP | Sa helicase inh
COc1ccc2oc(-c3ccccc3)c(C(N)=O)c2c1 | / | -7
CC(C)CN1C(=O)S/C(=C\c2ccc(F)cc2)C1=O | 0.5 | 5

More results.
Each structure is followed by: MgrA DNA FP | Sa helicase inh
> N#CC(C#N)=CNC1CCSC1 (configuration not stated)
→ / | 8
> COc1ccc(-c2ccnc(SCC(=O)N(C)C)n2)cc1
→ -2.5 | 9
> Cc1ccc(NC(=O)CS(=O)CC(=O)NC2CCN(Cc3ccccc3)CC2)c(C)c1 (configuration not stated)
→ -1.3 | -1
> O=C(O)/C=C/c1ccc(-c2cccc(Cl)c2)o1
→ / | -16
> CN1CCN(S(=O)(=O)c2ccc3c(c2)C(=NO)c2cc(S(=O)(=O)N4CCN(C)CC4)ccc2-3)CC1
→ / | 3
> CCOC(=O)c1c(NC(=O)CN2CCC3(CC2)OCCO3)sc(C)c1C
→ 6.8 | 7
> Cn1cnnc1SCc1nc2ccccn2c1Br
→ / | -21
> CCOc1cnn(C)c(=O)c1OCC
→ 1.9 | -1
> CCOC(=O)n1c(=O)oc2ccccc21
→ -2.8 | /
> COc1nc(-c2ccccc2)cc(C(F)(F)F)n1
→ -0.2 | 6
> O=C(NC1(C(F)(F)F)Oc2ccccc2O1)N1CCCc2ccccc21
→ 0.3 | 2
> COc1ccccc1C(=O)ON1C(=O)CCC1=O
→ / | 3
> Cc1occc1C(=O)Nc1cc(C(C)(C)C)on1
→ -0.3 | -1
> CC(C)(CO)Nc1c[nH]c(=O)[nH]c1=O
→ / | 24
> O=C(Cn1cnc2c(cnn2CCO)c1=O)N1CCCc2ccccc21
→ / | 8
> CSC1=NC(C)(C)CC12C=CC(=O)C=C2
→ / | 23
> NS(=O)(=O)c1cccc(C(=O)NCc2ccccc2)c1
→ -1.4 | 13
> O=C(CCS(=O)(=O)c1cccc2nsnc12)NC1CCCCC1
→ 5.4 | 15
> Cc1c(C)c(C)c(CSC(N)=Nc2ccccc2)c(C)c1C
→ -2.0 | /
> C=CCn1nnnc1NCc1ccccc1
→ 4.8 | 6
> CN1CCC(NC(=O)c2cccs2)CC1
→ / | 1
> COc1ccc(S(=O)(=O)NCC2CCCO2)cc1C(=O)O (configuration not stated)
→ / | 3
> CCCC(=O)c1cc2cc(Cl)ccc2oc1=O
→ -1.4 | 5
> Cc1cc(CNCC2CCCCC2)c(C)n1-c1nccs1
→ / | -10
> Cc1ccc(N2C(=O)CC2(C(=O)NC2CCCCC2)c2ccccc2F)cc1 (configuration not stated)
→ 2.2 | 5
> COc1ccc(Cl)cc1C(=O)NCCc1cc2ccc(C)cc2[nH]c1=O
→ / | -18
> CCN(c1ccccc1)S(=O)(=O)c1ccc2c(c1)C(C)(C)C(=O)N2C
→ / | -24
> CCCc1c(C(=O)Nc2ncn[nH]2)cnn1-c1ccccc1
→ 1.1 | /
> CCC1CCCCN1C(=O)COC(=O)c1ccc(NC(C)=O)cc1 (configuration not stated)
→ -1.5 | -8
> ONC=Nc1nonc1-c1cccnc1
→ -1.1 | /
> O=C(O)c1cc(=O)cc(C(=O)O)o1
→ -3.5 | 9
> O=C(Nc1ccc(S(=O)(=O)N2CCCCC2c2cccnc2)cc1)c1ccc2c(c1)OCO2 (configuration not stated)
→ / | 3
> N#CC(C(=O)c1ccc(-c2nc3ccccc3s2)s1)c1nc2ccccc2s1 (configuration not stated)
→ / | -33
> CCN(Cc1ccccc1)c1ccc(C2C3=C(CCCC3=O)Nc3[nH]c(=O)[nH]c(=O)c32)cc1 (configuration not stated)
→ 25 | 3
> O=C(OC(C(=O)NC1CCCCC1)c1ccccc1)c1ccco1 (configuration not stated)
→ 4.2 | 2
> O=C1CCCN1CCCNS(=O)(=O)c1cccc(Br)c1
→ / | 5
> CCOC(=O)C1CCN(CC(=O)Nc2ccc(C(F)(F)F)cc2Cl)CC1
→ / | -5
> Cc1c(C(=O)Nc2ccccc2)sc(N)c1C(N)=O
→ 9.2 | /
> Cc1ccc2nc(COC(=O)c3ccc4c(c3)OCCO4)cc(=O)n2c1
→ / | 1
> C=CCOc1cccc(C(=O)NCC)c1
→ 0.3 | -3

Reprinted at random: 4 records from the list
Each structure is followed by: MgrA DNA FP | Sa helicase inh
> O=C(O)c1cc(=O)cc(C(=O)O)o1
→ -3.5 | 9
> O=C1CCCN1CCCNS(=O)(=O)c1cccc(Br)c1
→ / | 5
> CCN(Cc1ccccc1)c1ccc(C2C3=C(CCCC3=O)Nc3[nH]c(=O)[nH]c(=O)c32)cc1 (configuration not stated)
→ 25 | 3
> N#CC(C(=O)c1ccc(-c2nc3ccccc3s2)s1)c1nc2ccccc2s1 (configuration not stated)
→ / | -33

The listing continues.
Each structure is followed by: MgrA DNA FP | Sa helicase inh
> CCOC(=O)Cc1nc(C)cs1
→ 0.6 | 0
> Cc1[nH]c(=S)[nH]c(=O)c1Cc1ccccc1
→ 4.8&0.9 | -7
> O=C(Nc1cc(Cl)cc(Cl)c1)C(Sc1ncccn1)c1ccccc1 (configuration not stated)
→ -0.3 | -17
> Cc1ccc(CNC(=O)N2CCn3cccc3C2C)cc1 (configuration not stated)
→ / | -3
> CCOC(=O)C(C)Oc1ccc(NC(=O)C(Cl)Cl)cc1 (configuration not stated)
→ -1.8 | /
> COc1ccc(Cl)cc1N1C(=O)C2C(c3ccccc3F)NN(C(=O)c3ccc(C)cc3)C2C1=O (configuration not stated)
→ 1.4 | 7
> O=C(Cn1cnc2sccc2c1=O)NC1CCS(=O)(=O)C1 (configuration not stated)
→ / | -8
> CC(C)NC(=O)C1CCN(Cc2cnn(-c3ccccc3)c2-n2cccc2)CC1
→ / | 7
> CC(=O)N1CCc2c(sc(NC(=O)C(C)C)c2C#N)C1
→ / | -14
> O=C(O)CCN1CCn2c3c(c4cc(C5CCCCC5)ccc42)CCCC31 (configuration not stated)
→ 7.0 | -2
> CCc1c(C)c(C#N)c2nc3ccccc3n2c1N1CCN(CCO)CC1
→ -1.7 | 1
> CCn1c(=O)c(=O)[nH]c2cc(C(=O)NCc3ccc4c(c3)OCO4)ccc21
→ / | -18
> CC(=O)Nc1nnc(CCCCn2c(-c3nonc3NC(C)=O)nc3ccccc32)s1
→ / | 2
> CCCc1cc(=O)[nH]c(Nc2ccccc2)n1
→ / | 9
> NC(=O)CSC1=NN2CCCC(=O)N=C2S1
→ / | 16
> COc1ccc(CCNC(=O)c2ccc3nc(-c4ccccc4NC(C)=O)c(=O)[nH]c3c2)c(OC)c1
→ 8.2 | 15
> CCOC(=O)c1cc(C#N)c(SCC(=O)OCc2ccc(C#N)cc2)nc1C
→ / | 29
> CC(C)COC(=O)CCn1[nH]c(=O)c2ccccc2c1=O
→ 0.9 | 6
> O=C(Nc1ccc(Cl)cc1)c1nccnc1CO
→ -2.0 | 17
> C[C@@H]1O[C@@H](O[C@H]2[C@H](Oc3cc(O)c4c(c3)O[C@H](c3ccc(O)cc3)CC4=O)O[C@H](CO)[C@@H](O)[C@@H]2O)[C@H](O)[C@H](O)[C@H]1O
→ 0.5 | /
> CN(C)S(=O)(=O)c1cccc(COC(=O)c2cn(-c3ccccc3)nc2-c2cccs2)c1
→ / | -12
> O=C(Nc1ccc([N+](=O)[O-])cc1Cl)c1cc(Cl)ccc1O
→ 1.9 | /
> Cc1ccc(-c2cn3c(n2)SCC3)cc1
→ 1.1 | 10
> Cc1ccc2cc3c(nc2c1)OCC3
→ / | -26
> CC(C)(C)c1ccc(C(=O)NC2CCSC2=O)cc1 (configuration not stated)
→ -1.1 | 15
> Cc1[nH]n(-c2ccccc2)c(=O)c1CCC(=O)O
→ / | -2
> Cc1noc(C)c1CN(C(=S)NC1CC1)c1ccccc1
→ / | 11
> CC(C)C(NC(=O)c1ccc(Cl)nc1)c1ccc2c(c1)OCCCO2 (configuration not stated)
→ / | -7
> O=C(Nc1ccc(-c2nc3ccccc3[nH]2)cc1)c1ccccc1
→ / | 5
> Cc1cc(C(=O)O)ccc1-c1ccc(/C=N/n2cnnc2)o1
→ 0.5 | 8
> COC(=O)C1=C(C)N=c2s/c(=C3\C(=O)N(C)c4ccccc43)c(=O)n2C1c1cccs1 (configuration not stated)
→ 3.0 | /
> Cc1onc(-c2c(F)cccc2Cl)c1C#N
→ 1.0 | /
> CCOC(=O)C1=C(C)NC2=C(C(=O)CC(C)(C)C2)C1C (configuration not stated)
→ -0.5 | 9
> O=C(O)CSc1nnc2nnc3ccccc3n12
→ / | 6
> Cc1cccc(Nc2ccc(NC(=O)c3ccccc3)c3c2C(=O)c2ccccc2C3=O)c1
→ 1.4 | /
> Cc1cc(C)c(CO)c(C)c1CO
→ 3.6 | 2
> O=C1OCCC1N1C(=O)c2ccccc2S1(=O)=O (configuration not stated)
→ / | 7
> Cc1cc(Oc2c([N+](=O)[O-])cc(C(F)(F)F)cc2[N+](=O)[O-])c2c(Cl)ccc(C)c2n1
→ 0.7 | /
> Cc1ccc2c(c1)-c1c(cnn1CC(=O)NCCCN1C(C)CCCC1C)CO2 (configuration not stated)
→ 8.2 | -14
